TAR Tat displ = HIV-1 TAR-Tat binding disruption; HIV-1 TAR RNA, Tat peptide displacement FRET; stronger effect = higher value; z-score (test concentration not listed); hit rate 0.6% among 100,000;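 note: score is relative to mean and SD of negative controls; some compounds called inactive have numbers as strong as hits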
CDC25B CDK2 inh = human CDC25B-CDK2/CyclinA binding inhibition | P30305+P24941 | HTRF CDC25B-CDK2/CyclinA binding, anti-His/anti-Flag; stronger effect = higher value | z-score (concentration not given with the values) | hit rate 0.72% among 94,000;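 note: score is relative to mean and SD of negative controls; strong numbers were not always called active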
Numbers without * were called inactive.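 Rule for the calls: active = z-score from 3 up in half or more of its runs; inactive = the rest.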

`C/C=C/CC(=O)NCC(N)=O` gave CDC25B CDK2 inh 0.81.
`N=C1C(c2nc3ccccc3[nH]2)=C(O)CN1c1ccc(O)cc1` gave TAR Tat displ 1.8 and CDC25B CDK2 inh -3.2.
Screening COc1ccc(Br)c(CN2N=NC3C(=O)N(c4ccc(Cl)cc4)C(=O)C32)c1 (stereo not drawn) returned TAR Tat displ -0.81 and CDC25B CDK2 inh -1.9.
Screening COc1cc(/C=N/NC(=S)Nc2cc(OC)c(Cl)cc2OC)ccc1O returned CDC25B CDK2 inh -1.8.
For O=S(=O)(c1cccc2nsnc12)N1CCN(c2nc3cccnc3s2)CC1 the results were TAR Tat displ -1.3.
`S=c1[nH]nc(CSc2nc(-c3ccccc3)cn2-c2ccccc2)n1-c1ccccc1` gave CDC25B CDK2 inh 0.16.
CCOC(=O)c1ccc(Oc2coc3cc(O)ccc3c2=O)cc1 was read as TAR Tat displ 0.67 and CDC25B CDK2 inh -1.6.
Screening O=C(CSc1nnc(-c2ccco2)o1)N1CCN(c2ccccc2)CC1 returned TAR Tat displ 0.74 and CDC25B CDK2 inh -1.5.
CN1C(=O)C(C)(C)c2cc(S(=O)(=O)NCCN3CCN(c4ccccc4)CC3)ccc21 was read as TAR Tat displ -0.53.
For CN1CCN(C(=O)c2c(O)c3cccc4c3n(c2=O)CCC4)CC1 the results were TAR Tat displ -0.38.
COc1ccc(NC(=O)c2c(N3CCCC3=O)c3cc(F)ccc3n2C)cc1OC was read as TAR Tat displ 1.2.
For CS(=O)(=O)n1nc(-c2ccco2)nc1NCc1cccs1 the results were TAR Tat displ 2.6 and CDC25B CDK2 inh -2.
`CCCCN1C(SCC(=O)NCCC)=NS(=O)(=O)c2ccccc21` gave TAR Tat displ 0.5.
For Cn1c(=O)oc2cc(S(=O)(=O)N(Cc3ccco3)C(=O)c3cccs3)ccc21 the results were TAR Tat displ 0.14 and CDC25B CDK2 inh -2.4.
`O=C(O)c1ccc(NC2=NC3CS(=O)(=O)CC3S2)cc1` (stereo not drawn) gave CDC25B CDK2 inh 0.32.
Cc1cccc(-c2nc3nc(C)cc(N4CCN(c5ccccn5)CC4)n3n2)c1 was read as TAR Tat displ 2.3.
O=C(CSc1nc2c(c(=O)n1-c1ccc(Br)cc1)SCC2)Nc1ccc(F)cc1 was read as TAR Tat displ 0.55 and CDC25B CDK2 inh -2.2.
For COc1ccc(OC)c(NC(=O)c2noc3c2CCCC3)c1 the results were TAR Tat displ -0.56.
Screening Cc1cc2nc(COC(=O)Cc3ccccc3)cc(=O)n2o1 returned TAR Tat displ -0.81.
CCCN[C@H]1CS(=O)(=O)C[C@@H]1S(=O)(=O)c1ccc(OCC)cc1 was read as TAR Tat displ 0.83 and CDC25B CDK2 inh 0.81.
`CCOC(=O)c1ccc(Oc2ncnc3c2oc2ccccc23)cc1` gave TAR Tat displ 0.68.
COc1ccc(/C(O)=C2/C(=O)C(=O)N(CCc3ccccc3)C2c2ccccc2F)cc1 (stereo not drawn) was read as TAR Tat displ 2 and CDC25B CDK2 inh -5.6.
Screening O=C(OC1=CN(Cc2ccccc2)S(=O)(=O)c2ccccc21)c1ccccc1Br returned TAR Tat displ 0.58 and CDC25B CDK2 inh -0.79.
`CC1(C)CC(=O)C(C2C3=C(CC(C)(C)CC3=O)OC3=C2C(=O)CC(C)(C)C3)=C(O)C1` gave CDC25B CDK2 inh -1.7.
Screening O=C(NC(c1ccccc1)c1ccccc1)c1cc2c(=O)n3ccccc3nc2s1 returned CDC25B CDK2 inh -2.6.
CC1CCN(C(=O)Cn2cc(SCC(=O)NCC3CCCO3)c3ccccc32)CC1 (stereo not drawn) was read as TAR Tat displ -0.1.
`CCCS(=O)(=O)NCc1nnnn1-c1ccccc1` gave TAR Tat displ 1.4.
c1ccc(Cn2ccc3ccccc32)cc1 was read as TAR Tat displ -2.4 and CDC25B CDK2 inh 0.83.
`COc1ccc(-c2noc(COc3ccc(C)cc3C)n2)cc1` gave TAR Tat displ 1.8 and CDC25B CDK2 inh 1.1.
`O=C(NC(c1ccccc1)c1nnc(-c2ccccc2)o1)c1ccco1` (stereo not drawn) gave TAR Tat displ -0.51.

Continued, starting with the last 2 of the part before.
`COc1ccc(-c2noc(COc3ccc(C)cc3C)n2)cc1` gave TAR Tat displ 1.8 and CDC25B CDK2 inh 1.1.
`O=C(NC(c1ccccc1)c1nnc(-c2ccccc2)o1)c1ccco1` (stereo not drawn) gave TAR Tat displ -0.51.
Screening CCc1nc2ccccc2n1CC(O)COc1cccc(OC)c1 (stereo not drawn) returned TAR Tat displ -0.8 and CDC25B CDK2 inh 0.17.
CC(C)N(C(=O)NC(=O)c1csnn1)C(C)C was read as CDC25B CDK2 inh -0.86.
O=C(Nc1ccc(S(=O)(=O)Nc2nccs2)cc1)c1nn(-c2ccc(Cl)cc2)ccc1=O was read as TAR Tat displ 0.5 and CDC25B CDK2 inh 0.91.
For O=c1[nH]c(=O)n(Cc2ccccc2)c(O)c1C1=Nc2ccccc2SC(c2cccs2)C1 (stereo not drawn) the results were TAR Tat displ 0.85 and CDC25B CDK2 inh -2.1.
CC(C)N(C(=O)CN(C)S(=O)(=O)c1ccc2c(c1)CCC(=O)N2)C1CCCCC1 was read as CDC25B CDK2 inh 0.33.
`CCOC(=O)c1c(NC(C)=O)nc(SC)n1Cc1ccco1` gave CDC25B CDK2 inh -1.8.
`COc1ccc(-c2cn3cccc(OCc4ccc(Cl)c(Cl)c4)c3n2)cc1` gave CDC25B CDK2 inh -1.4.
`Cn1c(N2C(=O)c3cccc4cccc(c34)C2=O)nc2ccccc21` gave CDC25B CDK2 inh -1.
Screening CCc1ccc(C(=O)N(Cc2ccccc2)C(C)C)cc1 returned CDC25B CDK2 inh -0.19.
COc1cccc(-c2noc3ncnc(N4CCN(c5ccccn5)CC4)c23)c1 was read as TAR Tat displ 0.13.
CCOC(=O)c1c(NC(=O)C2COc3ccccc3O2)sc(C)c1C (stereo not drawn) was read as TAR Tat displ -5.1 and CDC25B CDK2 inh -0.44.
Cc1ccc(S(=O)(=O)c2c(O)c3sc4cccc(Cl)c4c3[nH]c2=O)cc1 was read as TAR Tat displ -0.92 and CDC25B CDK2 inh -0.34.
`CCCS(=O)(=O)/C(C#N)=C/Nc1ncccn1` gave CDC25B CDK2 inh -1.7.
`Cn1c(=O)c2c(nc(NCCOCCO)n2Cc2ccc(Cl)cc2)n(C)c1=O` gave CDC25B CDK2 inh -1.4.
For Cc1ccccc1-c1ccnc2[nH]n(-c3ccccc3)c(=O)c12 the results were TAR Tat displ 0.98 and CDC25B CDK2 inh -0.59.
`CC1(O)CC2C(CC1O)C2(C)C` (stereo not drawn) gave TAR Tat displ 0.8.
For CC1(C)Cc2c(sc3ncn4nc(CSc5nc6ccccc6o5)nc4c23)C(C)(C)N1 the results were CDC25B CDK2 inh -2.8.
`O=C(CCCc1c[nH]c2ccccc12)NC1=NCCS1` gave TAR Tat displ 1.9.
Screening O=C1C2CCCCC2C(=O)N1c1cccc2ccccc12 (stereo not drawn) returned TAR Tat displ -0.73 and CDC25B CDK2 inh -1.8.
Screening CCOc1ccc(-c2nn3c(CC)nnc3s2)cc1 returned TAR Tat displ 0.15 and CDC25B CDK2 inh 0.9.
COc1ccc(OC)c(S(=O)(=O)Nc2cccc(Cl)c2)c1 was read as CDC25B CDK2 inh 0.17.
For Cc1ccc2[nH]c3c(c2c1)C(C)(C)NC(C)(C)C3 the results were CDC25B CDK2 inh -0.68.
`COC(=O)c1cc(S(=O)(=O)N2CCC(N3CCCCC3)CC2)c[nH]1` gave TAR Tat displ 2.7.
Screening CN(C(=O)CSc1nc2ccccc2[nH]1)c1ccccc1 returned TAR Tat displ 1.2 and CDC25B CDK2 inh -0.36.
Cc1ccccc1-c1nnc(SCC(=O)c2ccccc2)o1 was read as TAR Tat displ 1.7 and CDC25B CDK2 inh -0.55.
`CCOC(=O)C(CC)n1nc(C)n2c(cc3sccc32)c1=O` (stereo not drawn) gave TAR Tat displ 0.27 and CDC25B CDK2 inh -2.5.
For CCOC(=O)Cn1c(=O)oc2cc(S(=O)(=O)N(CC(C)C)CC(C)C)ccc21 the results were TAR Tat displ -1.1 and CDC25B CDK2 inh 0.07.
CCN1C(=O)C(Cc2nc3ccccc3c(=O)n2-c2ccc(Br)cc2)c2ccccc21 (stereo not drawn) was read as TAR Tat displ 0.29 and CDC25B CDK2 inh -1.4.
CC12CN3CC(C)(CN(C1)C3c1ccc(F)cc1)C2 (stereo not drawn) was read as TAR Tat displ 2.1 and CDC25B CDK2 inh -0.15.
Screening CSC1=NCCN1CC(=O)c1ccc(Cl)cc1 returned CDC25B CDK2 inh -1.4.
CCOc1ccc(NC(=O)NCc2nnnn2-c2ccc(OCC)cc2)cc1 was read as TAR Tat displ 2.4.
Screening Cc1ccc(C)c(-c2ccc(=O)n(Cc3cccc(Br)c3)n2)c1 returned TAR Tat displ 2 and CDC25B CDK2 inh 1.9.
For Cn1c(=O)oc2cc(S(=O)(=O)NCCCN3CCN(c4ccccc4F)CC3)ccc21 the results were CDC25B CDK2 inh 0.26.
Screening COc1cc(NC(=O)C(C)Sc2nnc(-c3ccoc3C)o2)cc(OC)c1 (stereo not drawn) returned TAR Tat displ 1 and CDC25B CDK2 inh 0.31.
COc1ccc(NC(=O)NCc2c(-n3cccc3)sc3c2CCN(C)C3)cc1OC was read as TAR Tat displ 0.2.
Screening COc1ccccc1CNC(=O)C1CCC(=O)N1C(C)C (stereo not drawn) returned CDC25B CDK2 inh -1.9.
Cc1ccc(S(=O)(=O)Oc2ccc(-c3ccc(OS(=O)(=O)c4ccc(C)cc4)cc3)cc2)cc1 was read as CDC25B CDK2 inh -1.3.
`CC(C)CN(CC(C)C)C(=O)CCS(=O)(=O)c1cc2c(cc1Cl)NC(=O)CO2` gave TAR Tat displ 2.4.
`CNc1ncnc(N2CCCCC2)c1[N+](=O)[O-]` gave CDC25B CDK2 inh -1.8.
For Cc1onc(-c2ccccc2)c1N1C(=O)CCN(Cc2ccccc2)C1=O the results were CDC25B CDK2 inh -2.1.

3 neighbouring records already listed:
`C/C=C/CC(=O)NCC(N)=O` gave CDC25B CDK2 inh 0.81.
`N=C1C(c2nc3ccccc3[nH]2)=C(O)CN1c1ccc(O)cc1` gave TAR Tat displ 1.8 and CDC25B CDK2 inh -3.2.
Screening COc1ccc(Br)c(CN2N=NC3C(=O)N(c4ccc(Cl)cc4)C(=O)C32)c1 (stereo not drawn) returned TAR Tat displ -0.81 and CDC25B CDK2 inh -1.9.

Going on with the list:
Cc1ccc(N(CC(N)=O)C2SC(=O)NC2=O)cc1 (stereo not drawn) was read as TAR Tat displ -0.02 and CDC25B CDK2 inh -0.82.
CC1CCc2c(sc3c2CSC(C(=O)NCCCN2CCCC2)=C3)C1 (stereo not drawn) was read as TAR Tat displ -1.4.
Screening Cc1cccc(N2CCN(c3nc4ccccc4n4cnnc34)CC2)c1C returned TAR Tat displ 1.2 and CDC25B CDK2 inh -1.1.
`COc1ccc(OC)c(S(=O)(=O)N2CCN(c3ncccn3)CC2)c1` gave TAR Tat displ 1 and CDC25B CDK2 inh -2.4.
Screening CCOc1ccc(C=C2C(=O)NC(=S)NC2=O)cc1OC returned CDC25B CDK2 inh -0.94.
CCOC(=O)N1CCN(Cc2nc3c(c(=O)[nH]c(=O)n3C)n2Cc2ccc(C)cc2)CC1 was read as TAR Tat displ 0.93 and CDC25B CDK2 inh -1.4.
Screening CCSCCOC(=O)C1=C(C)NC2=C(C(=O)CCC2)C1c1ccc(F)cc1 (stereo not drawn) returned TAR Tat displ 0.53 and CDC25B CDK2 inh -0.98.
c1ccc2c(c1)CCN2c1ncnc2c1nc1n2CCCCC1 was read as TAR Tat displ 0.39.
Screening Cc1cc(C)c2c(n1)sc1c(=O)oc(C)nc12 returned CDC25B CDK2 inh -2.5.
CC(C)OC(=O)CCCCCN1C(=O)CSC1=S was read as TAR Tat displ -0.81 and CDC25B CDK2 inh 0.08.

Fetched by compound from the entries so far, 7 records:
CC(C)OC(=O)CCCCCN1C(=O)CSC1=S was read as TAR Tat displ -0.81 and CDC25B CDK2 inh 0.08.
Screening CCSCCOC(=O)C1=C(C)NC2=C(C(=O)CCC2)C1c1ccc(F)cc1 (stereo not drawn) returned TAR Tat displ 0.53 and CDC25B CDK2 inh -0.98.
c1ccc2c(c1)CCN2c1ncnc2c1nc1n2CCCCC1 was read as TAR Tat displ 0.39.
Cc1ccc(N(CC(N)=O)C2SC(=O)NC2=O)cc1 (stereo not drawn) was read as TAR Tat displ -0.02 and CDC25B CDK2 inh -0.82.
CCOC(=O)N1CCN(Cc2nc3c(c(=O)[nH]c(=O)n3C)n2Cc2ccc(C)cc2)CC1 was read as TAR Tat displ 0.93 and CDC25B CDK2 inh -1.4.
Screening Cc1cccc(N2CCN(c3nc4ccccc4n4cnnc34)CC2)c1C returned TAR Tat displ 1.2 and CDC25B CDK2 inh -1.1.
Screening Cc1cc(C)c2c(n1)sc1c(=O)oc(C)nc12 returned CDC25B CDK2 inh -2.5.

Next part
For COc1cc(-c2ccno2)ccc1S(=O)(=O)N1CCN(c2ccc(F)cc2)CC1 the results were TAR Tat displ 1.9.
Screening O=C1CC(=O)Nc2cc(S(=O)(=O)N3CCOc4ccc(Cl)cc43)ccc2N1 returned TAR Tat displ 0.89.
`Cc1oc2ncnc(N3CCOCC3)c2c1C(=O)N(C)c1ccccc1` gave TAR Tat displ 0.84.
`CCCN1CCN(c2cc3c(cc2F)c(=O)c(S(=O)(=O)c2ccc(OC)cc2)cn3CC)CC1` gave TAR Tat displ 0.68.
Screening O=C(c1ccc(F)cc1)c1oc2ccccc2c1NC(=O)C1COc2ccccc2O1 (stereo not drawn) returned TAR Tat displ 1.1 and CDC25B CDK2 inh -1.8.
For CCC(C)(C)NS(=O)(=O)c1ccc(CCN2C(=O)c3cccnc3C2=O)cc1 the results were TAR Tat displ 0.71.

Screens (PubChem BioAssay)
